D1 agonist: agonists of human D1 dopamine receptor. P21728. HEK293 T-REx D1 cells, calcium flux, agonist mode. activation, % at 2 µM. 360,000 tested, 1% active. AID 504660; in the data active = activation above about 30%; also: 0% is about no effect
Target sequence (P21728 whole entry, looked up): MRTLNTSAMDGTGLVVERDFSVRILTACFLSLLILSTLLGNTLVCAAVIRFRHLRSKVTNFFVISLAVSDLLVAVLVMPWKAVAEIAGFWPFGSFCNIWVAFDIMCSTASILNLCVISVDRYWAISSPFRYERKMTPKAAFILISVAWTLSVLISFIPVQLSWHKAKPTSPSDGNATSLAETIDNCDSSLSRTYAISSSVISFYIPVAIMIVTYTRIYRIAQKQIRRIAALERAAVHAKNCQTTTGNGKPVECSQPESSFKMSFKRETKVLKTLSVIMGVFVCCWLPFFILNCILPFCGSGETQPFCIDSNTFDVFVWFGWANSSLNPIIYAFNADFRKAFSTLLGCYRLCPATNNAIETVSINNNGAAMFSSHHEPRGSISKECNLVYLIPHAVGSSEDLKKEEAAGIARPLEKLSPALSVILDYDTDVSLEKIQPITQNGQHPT
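Tetracycline-induced HEK293 TREx D1 cells, force-coupled to calcium signalling, were dye-loaded with a no-wash calcium kit. Compound was pin-added after a 10 s baseline. Fluorescence was read kinetically at 1 cycle/s for 180 s, with calcium rises flagged as agonism.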
Vif-APOBEC3G blk: blocks the Vif interaction with human APOBEC3G; Q9HC16; HeLa A3G-eYFP + Vif (tagged APOBEC3G with the HIV-1 protein that degrades it), YFP fluorescence, overnight; Potency, µM (highest dose often 46.1 µM), without a hit: at the highest dose activity, negative = active, most hits filed as inhibitors; 410,000 tested, 0.076% active;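 also: potency is read from the fitted curve at half-maximal effect; % is scaled to controls: 0 for no effect and ±100 for the full control effect; nearly all actives have a fitted effect of over 60% in size; hits raise eYFP signal because A3G escapes Vif-driven loss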
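HeLa cells stably expressing Vif and C-terminally eYFP-tagged A3G, seeded overnight at 37 deg C, then exposed to compound by pintool overnight at 37 deg C. Rise in yellow fluorescence (Ex 488/Em 500-530, Acumen) marks blocked Vif-driven A3G degradation.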
D1 antag: blocks dopamine activation of the human D1 receptor. HEK293 TREx D1 cells, calcium flux, dopamine EC80; hits give low values. activity change, negative = inhibition, % at 10 µM. 360,000 tested, 3.2% active. AID 504652; in the data active = activity change below about -30%; also: % is scaled to controls: 0 for no effect and ±100 for the full control effect
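Using tetracycline-induced force-coupled D1 Hek293 cells and a calcium dye, signals were followed for 180 s after compound, then for 180 s after EC80 dopamine, to detect inhibitors.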
D1 PAM: potentiators of human D1 dopamine receptor; HEK293 TREx D1 cells, calcium flux, dopamine EC20 potentiation; potentiation, % at 10 µM; 360,000 tested, 0.036% active; AID 504651; in the data active = potentiation above about 30%; also: 0% is about no effect
Vif-A3F inh: Vif-A3F binding inhibition; Potency, µM (highest dose often 46.1 µM), inactives show top-dose activity, negative = active; AID 602313; 390,000 tested, 0.2% active; HeLa A3F-eYFP + Vif (tagged APOBEC3F with the HIV-1 protein that degrades it), YFP fluorescence increase; also: potency is read from the fitted curve at half-maximal effect; % of control where 0% means no effect; nearly all actives have a fitted effect of over 65% in size
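HeLa cells stably expressing Vif plus C-terminally eYFP-tagged A3F were seeded, incubated overnight at 37 deg C, dosed with compound, incubated overnight again at 37 deg C. Yellow fluorescence (Ex 488/Em 500-530) reported blocked Vif-mediated A3F-eYFP degradation.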
D2 potentiator: positively modulates the human D2 dopamine receptor allosterically. HEK293 T-REx D2, calcium flux, EC20 dopamine potentiation. 340,000 tested, 0.34% active. potentiation, % at 10 µM. P14416;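 active = potentiation over 3 SD above the plate norm, cut at about 30% in these data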; also: 0% is about no effect
Target sequence (P14416 whole entry, looked up): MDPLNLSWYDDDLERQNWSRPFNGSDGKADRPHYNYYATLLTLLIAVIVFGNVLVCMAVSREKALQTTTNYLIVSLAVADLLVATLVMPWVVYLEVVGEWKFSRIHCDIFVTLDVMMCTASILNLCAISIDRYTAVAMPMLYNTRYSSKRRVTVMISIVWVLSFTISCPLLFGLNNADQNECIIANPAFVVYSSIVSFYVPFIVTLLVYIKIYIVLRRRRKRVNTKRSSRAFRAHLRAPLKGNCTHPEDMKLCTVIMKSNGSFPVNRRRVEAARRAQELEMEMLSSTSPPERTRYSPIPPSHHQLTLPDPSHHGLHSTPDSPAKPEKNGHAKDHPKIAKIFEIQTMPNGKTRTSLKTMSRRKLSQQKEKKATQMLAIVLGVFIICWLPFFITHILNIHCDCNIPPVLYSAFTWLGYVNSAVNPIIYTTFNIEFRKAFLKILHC
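Calcium flux readout, no-wash dye, 1 read/s. Inducible HEK293 Trex D2 line, overnight 30 C. Compound alone 180 s (agonist flags), then EC20 dopamine, another 180 s to score potentiation.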
Glioma ERSR ind: induces the endoplasmic reticulum stress response in human glioma cells; 420,000 tested, 0.02% active; Potency, µM, for the others: at the highest dose activation, usual class: activators; U87-MG GRP78 promoter luciferase reporter, 16 h; also: potency is read from the fitted curve at half-maximal effect; series mostly up to about 76 µM; % of control where 0% means no effect; nearly all actives have a fitted effect of over 35% in size
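Stably transfected U87-MG human glioma cells carrying a GRP78-based luminescent sensor were seeded at 1000 cells/well, pin-dosed with compounds and incubated 16 h. Luciferase reagent was then added, and end-point luminescence was read after 10 min at room temperature.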
* marks the source's active call; other numbers are inactive results; ? = inconclusive; · = not tested or not shown; & = joins results of further samples; ! = repeats disagree. Unless noted, calls follow the shape of the dose curve; as a rule, active = well fitted curve in the direction sought with a large enough effect; inconclusive = small, poorly fitted or top-dose-only effect, or another doubt; inactive = no such curve, though single readings can be large; an effect the other way counts as inactive or inconclusive.

(1) CN(CC(=O)Nc1cccc(F)c1)C(=O)c1cc(-c2ccco2)nc2ccccc12
(2) COc1ccc(F)cc1CN1CCN(c2ncnc3scc(-c4ccccc4)c23)CC1
(3) CN1CCN(c2nc3c(S(=O)(=O)c4ccc(Br)cc4)nnn3c3ccsc23)CC1
(4) Cc1ccc(C(=O)Nc2nnc(S(=O)(=O)N(C)Cc3ccc(Cl)cc3)s2)cc1
(5) Cc1cc(N/N=C/c2ccccc2[N+](=O)[O-])nc(-n2nc(C)cc2C)n1
(6) Cc1cccc(C)c1OCC(=O)Nc1nc(-c2ccc(Br)cc2)ns1
assay / entry	1	2	3	4	5	6
D1 agonist	1	2	2	4	2	0
Vif-APOBEC3G blk	-9%	0%	3%	6%	2%	3%
D1 antag	6	8	-4	3	-6	-15
D1 PAM	0	3	-1	-3	3	2
Vif-A3F inh	?	-18%	4%	-2%	-8%	0%
D2 potentiator	6	-4	-1	7	-15	-7
Glioma ERSR ind	-5%	-2%	-1%	-2%	-3%	-2%

(7) Cc1ccc(NC(=O)c2sc3ncn(CC(=O)N4CCOCC4)c(=O)c3c2C)c(Br)c1
(8) C=CCNc1cnn(-c2ccccc2)c(=O)c1Cl
(9) Cc1sc2nc(CN3CCCC3)nc(N3CCC(C(N)=O)CC3)c2c1C
(10) COC(=O)C1=NN(c2ccccc2)C2C(=O)N(c3ccccc3OC)C(=O)C12 (configuration not stated)
(11) O=C(c1cc2c(s1)-c1ccccc1OC2)N1CCN(c2ccccc2F)CC1
(12) Cc1ccc(NC(=O)CCCc2nnc3n(C)c(=O)c4sccc4n23)cc1F
assay / entry	7	8	9	10	11	12
D1 agonist	1	0	-1	0	1	3
Vif-APOBEC3G blk	-2%	-3%	0%	1%	5%	3%
D1 antag	16	4	-6	4	1	-3
D1 PAM	0	-2	-1	-4	-1	0
Vif-A3F inh	5%	-8%	5%	1%	-3%	-3%
D2 potentiator	-5	2	-8	7	-3	·
Glioma ERSR ind	2%	-1%	-5%	-2%	-3%	-2%

Record cards (already shown).
Shown for Cc1ccc(NC(=O)CCCc2nnc3n(C)c(=O)c4sccc4n23)cc1F = D1 agonist: 3; Vif-APOBEC3G blk: 3%; D1 antag: -3; D1 PAM: 0; Vif-A3F inh: -3%; D2 potentiator: ·; Glioma ERSR ind: -2%
Shown for O=C(c1cc2c(s1)-c1ccccc1OC2)N1CCN(c2ccccc2F)CC1 = D1 agonist: 1; Vif-APOBEC3G blk: 5%; D1 antag: 1; D1 PAM: -1; Vif-A3F inh: -3%; D2 potentiator: -3; Glioma ERSR ind: -3%

Next part
(13) CCCOc1cccc(C2C(C(=O)c3ccc(C)o3)=C(O)C(=O)N2c2nc(C)c(C(C)=O)s2)c1 (configuration not stated)
(14) Cc1cccc(C)c1Nc1nnc(SCC(=O)NC(=O)c2cccn2C)s1
(15) CCc1ccccc1NC(=O)CSc1nnc(-c2ccc(OC)cc2)s1
(16) CC1(C)NC(=O)N(CNc2cc(Cl)ccc2Cl)C1=O
(17) O=S(=O)(NC1CCCCCC1)c1cccc2cccnc12
(18) COc1ccc(/C(C)=N/NC(=O)c2ccc(NS(=O)(=O)c3cccs3)cc2)cc1
assay / entry	13	14	15	16	17	18
D1 agonist	2	3	1	3	3	2
Vif-APOBEC3G blk	-7%	0%	2%	1%	2%	-6%
D1 antag	23	-4	6	0	-19	14
D1 PAM	-3	-5	-4	-2	-13	-1
Vif-A3F inh	-4%	-3%	2%	1%	4%	?
D2 potentiator	9	-1	10	-3	-19	2
Glioma ERSR ind	-1%	-2%	-1%	-4%	2%	-2%

(19) COc1ccc(OC)c(NC(=O)CSc2ccc3nnc(-c4cccnc4)n3n2)c1
(20) COc1ccc(-c2cc(-c3n[nH]c(=S)n3-c3cc(OC)ccc3OC)[nH]n2)cc1
(21) CC1(C)Cc2ccccc2C(/C(C#N)=N/O)=N1
(22) CN1CCN(NC(=O)c2cc(-c3ccc(Br)s3)nc3ccccc23)CC1
(23) CCN(CC)CCNC(=O)c1cc(-c2ccc(Br)s2)nc2ccccc12
(24) Cc1cccn2c(=O)c3cc(C(=O)NCC4CCCO4)c(=N)n(CC4CCCO4)c3nc12 (configuration not stated)
assay / entry	19	20	21	22	23	24
D1 agonist	2	1	2	12	34*!	-2
Vif-APOBEC3G blk	-1%	-20%	1%	?	?	1%
D1 antag	-3	4	17	-22	-5&7	11
D1 PAM	-2	2	-5	-10	-1&0	6
Vif-A3F inh	6%	-9%	-1%	?	-17%&-17%	3%
D2 potentiator	-3	1	3	1	-10&-11	16
Glioma ERSR ind	-2%	-2%	4%	-1%	-3%&-2%	1%

As entered above.
D1 agonist with no. 23 : 34*!
D1 agonist with no. 10 : 0

Given with values under each structure: part of the list above.
Values run as follows: D1 agonist	Vif-APOBEC3G blk	D1 antag	D1 PAM	Vif-A3F inh	D2 potentiator	Glioma ERSR ind
9	Cc1sc2nc(CN3CCCC3)nc(N3CCC(C(N)=O)CC3)c2c1C
    -1	0%	-6	-1	5%	-8	-5%
10	COC(=O)C1=NN(c2ccccc2)C2C(=O)N(c3ccccc3OC)C(=O)C12 (configuration not stated)
    0	1%	4	-4	1%	7	-2%
11	O=C(c1cc2c(s1)-c1ccccc1OC2)N1CCN(c2ccccc2F)CC1
    1	5%	1	-1	-3%	-3	-3%
12	Cc1ccc(NC(=O)CCCc2nnc3n(C)c(=O)c4sccc4n23)cc1F
    3	3%	-3	0	-3%	·	-2%
13	CCCOc1cccc(C2C(C(=O)c3ccc(C)o3)=C(O)C(=O)N2c2nc(C)c(C(C)=O)s2)c1 (configuration not stated)
    2	-7%	23	-3	-4%	9	-1%
14	Cc1cccc(C)c1Nc1nnc(SCC(=O)NC(=O)c2cccn2C)s1
    3	0%	-4	-5	-3%	-1	-2%
15	CCc1ccccc1NC(=O)CSc1nnc(-c2ccc(OC)cc2)s1
    1	2%	6	-4	2%	10	-1%
16	CC1(C)NC(=O)N(CNc2cc(Cl)ccc2Cl)C1=O
    3	1%	0	-2	1%	-3	-4%
17	O=S(=O)(NC1CCCCCC1)c1cccc2cccnc12
    3	2%	-19	-13	4%	-19	2%
18	COc1ccc(/C(C)=N/NC(=O)c2ccc(NS(=O)(=O)c3cccs3)cc2)cc1
    2	-6%	14	-1	?	2	-2%
19	COc1ccc(OC)c(NC(=O)CSc2ccc3nnc(-c4cccnc4)n3n2)c1
    2	-1%	-3	-2	6%	-3	-2%
20	COc1ccc(-c2cc(-c3n[nH]c(=S)n3-c3cc(OC)ccc3OC)[nH]n2)cc1
    1	-20%	4	2	-9%	1	-2%
21	CC1(C)Cc2ccccc2C(/C(C#N)=N/O)=N1
    2	1%	17	-5	-1%	3	4%

The list goes on:
(25) COC(=O)c1cc2ccsc2n1CC(=O)N(C)c1ccccc1
(26) Cc1oc(-c2cccc(Br)c2)nc1CSc1nc2ncccc2[nH]1
(27) CCOc1cc(S(=O)(=O)NCCN2CCOCC2)c(C)cc1C
(28) N=c1c(C(=O)NCC2CCCO2)cc2c(=O)n3ccccc3nc2n1C1CCCCC1 (configuration not stated)
(29) CCn1c(CNC(=O)COc2ccc(C(C)C)cc2)nnc1SCC(=O)Nc1ccccc1
(30) COc1cccc(NC(=O)c2cc3c(=O)n(Cc4cccnc4)ccc3nc2C)c1
(31) CCC(=O)Nc1sc2c(c1C(=O)Nc1ccccc1C)CCC(C)C2 (configuration not stated)
(32) COc1ccc(CNC(=O)Cc2c(C)c3c(O)cc(C)cc3oc2=O)cc1
(33) CCOc1ccc(-c2cc(C(=O)Nc3ccc4c(c3)OCCO4)c3ccccc3n2)cc1
assay / entry	25	26	27	28	29	30	31	32	33
D1 agonist	2	1	4	1	3	1	9	2	1
Vif-APOBEC3G blk	0%	-4%	2%	-8%	0%	2%	1%	-5%	-16%
D1 antag	-2	0	1	-19	-23	1	-1	2	2
D1 PAM	5	6	7	-6	-3	-3	3	-1	-9
Vif-A3F inh	2%	-3%	5%	-3%	-6%	1%	1%	0%	-4%
D2 potentiator	·	-4	-4	·	11	-5	2	-8	7
Glioma ERSR ind	-2%	-3%	-7%	-6%	-2%	-3%	-2%	1%	-2%

Source: PubChem (National Center for Advancing Translational Sciences (NCATS))

Some of the compounds tested (hit frequency here may not be typical).
